TSHR agonist – activates the human thyroid stimulating hormone receptor | HEK293-CNG-TSHR cells (CNG channel as cAMP sensor), membrane potential dye, cAMP | 73,000 compounds, 0.48% hits | Potency, µM (titrated, usually from 57.1 µM), for inactives: at the highest dose activation, hits mostly activators | P16473; active = well fitted activation curve of enough size with the parental cells flat; inconclusive = any curve in the parental cells; inactive = parental cells flat and receptor cells flat or falling; note: potency is the fitted concentration of half-maximal effect; % of control where 0% means no effect; weak receptor curves with flat parental cells got no call and are not listed
Target sequence (P16473 whole entry, looked up): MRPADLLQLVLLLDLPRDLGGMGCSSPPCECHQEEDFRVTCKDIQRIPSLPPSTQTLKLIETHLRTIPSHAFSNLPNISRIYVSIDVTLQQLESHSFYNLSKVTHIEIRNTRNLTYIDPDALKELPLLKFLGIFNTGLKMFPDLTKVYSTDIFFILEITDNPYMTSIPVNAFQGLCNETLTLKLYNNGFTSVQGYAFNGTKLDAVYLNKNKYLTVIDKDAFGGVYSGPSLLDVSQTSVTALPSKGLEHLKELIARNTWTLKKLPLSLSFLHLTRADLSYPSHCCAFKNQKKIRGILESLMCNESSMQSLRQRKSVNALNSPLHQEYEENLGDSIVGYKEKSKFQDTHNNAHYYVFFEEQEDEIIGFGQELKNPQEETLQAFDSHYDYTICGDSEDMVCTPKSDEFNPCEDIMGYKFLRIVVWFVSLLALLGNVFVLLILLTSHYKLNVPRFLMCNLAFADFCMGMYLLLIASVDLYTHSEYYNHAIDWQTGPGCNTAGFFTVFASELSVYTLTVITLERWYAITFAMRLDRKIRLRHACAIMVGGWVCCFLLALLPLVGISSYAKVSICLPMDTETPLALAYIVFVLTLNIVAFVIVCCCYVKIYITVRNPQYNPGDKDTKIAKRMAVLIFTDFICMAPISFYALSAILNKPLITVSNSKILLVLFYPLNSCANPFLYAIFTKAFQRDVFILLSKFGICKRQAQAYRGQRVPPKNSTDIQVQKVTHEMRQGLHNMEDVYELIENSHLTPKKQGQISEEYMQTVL
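HEK 293 cells stably expressing TSHR and a cAMP-gated CNG channel; parental CNG-only cells as counterscreen. Cells preloaded 60 min with membrane potential dye plus 100 uM RO 20-1724, then compound 30 min; fluorescence read at 590 nm.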
A488 autofl – A488 region autofluorescence. compound autofluorescence, A488 spectral region, dye equivalency; active compounds read high. max dye equivalency, M. 59,000 compounds, 0.1% hits. AID 591; active = above 10 nM dye equivalent; inconclusive = 1 to 10 nM; inactive = 1 nM or less; about half of its hits are not listed in these tables;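 note: highest value over a series up to 38 µM; compound alone in buffer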
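Autofluorescence read at ex 480/em 540 nm after 15 min RT in 100 mM Tris pH 8.0; compound signal normalized to A488 standard series on each plate, reported as dye-equivalent concentration at each test concentration.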
A647 autofl – A647 region autofluorescence | max dye-equivalent concentration, M | AID 592 | 59,000 tested, under 10 active | Compound fluorescence, A647 channel (570/671 nm), Tris buffer; active means above 1 µM dye equivalent; inconclusive means 0.1 to 1 µM; inactive means 0.1 µM or less;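 note: values scaled relative to a standard on each plate; highest value over a series up to 38 µM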
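Compounds pinned into 100 mM Tris pH 8.0, 15 min at room temperature, then read with 570 nm excitation/671 nm emission filters. Fluorescence normalized to an on-plate six-point Alexa 647 standard curve, giving dye-equivalent concentration per compound concentration.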
Resorufin autofl – resorufin region autofluorescence; Compound fluorescence, resorufin region 547/598 nm, buffer; active compounds read high; max dye-equivalent concentration, M; 59,000 compounds, 0.04% hits; AID 588; active = above 10 nM dye equivalent; inconclusive = 1 to 10 nM; inactive = 1 nM or less; a few of its hits are not listed in these tables; note: highest value over a series up to 38 µM
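Compounds in 100 mM Tris, pH 8.0, incubated 15 min at room temperature, then fluorescence read at 547 nm excitation/598 nm emission. Signal converted to dye-equivalent concentration via an on-plate six-point resorufin standard curve, per compound concentration.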
AID923 – qHTS Assay for Allosteric/Competitive Inhibitors of Caspase-1: Spectroscopic Profiling in AFC Spectral Region | compound fluorescence, AFC spectral region (405/520 nm); almost no hit is shown here | Potency, µM (doses to about 57.5 µM), without a hit: top-dose fluorescence increase, usual class: activators | 75,000 compounds, 1.1% hits | AID 923, 2007; active = well fitted activation curve with a large enough effect; inconclusive = small, poorly fitted or top-dose-only effect;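 note: potency is the fitted concentration of half-maximal effect; 0% is about no effect; scaled to a free AFC standard on each plate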
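Baseline compound fluorescence (AFC region, 405 nm ex/520 nm em) taken from the intercept of kinetic reads with 50 nM caspase-1 and 5 uM Ac-WEHD-AFC; normalized to an on-plate AFC standard curve; compounds titrated up to 57 uM.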
Active calls of the source: *; i = inactive; ? = inconclusive; . = not tested or not shown; & = joins results of further samples; [ ] = remark or other dose. Some of the compounds tested (hit frequency here may not be typical).

Each structure is followed by: TSHR agonist | A488 autofl | A647 autofl | Resorufin autofl | AID923
O=C(CSc1nnc(CNC(=O)c2ccco2)o1)c1ccc(Cl)cc1
 : 13.5%[11.4 µM] | i | 3.16e-08 | i | 0.8%
CCCc1cc(=O)[nH]c(/N=C(\N)Nc2ccccc2)n1
 : 4.4% | i | 8.5e-09 | i | -2.0%
CCc1noc(C)c1C(=O)Nc1ncc(C)s1
 : -5.7% | i | 4.7e-09 | i | 0.3%
COc1ccc(CNC(=O)CCc2c(C)nc3ncnn3c2C)cc1
 : 1.6%[11.4 µM] | i | 3.06e-08 | i | -1.8%
CN1CCN(C(=O)c2cnn(-c3ccccc3)c2NC(=O)c2ccccc2F)CC1
 : 5.8% | i | 1e-09 | i | -2.0%
COc1ccccc1N1CCN(S(=O)(=O)c2cnc[nH]2)CC1
 : 7.9% | . | . | . | -1.1%
COCCn1c(=O)c(-c2cccc(C#N)c2)nc2cnc(Oc3cccc(Cl)c3)nc21
 : -2.2% | i | 2.71e-08 | i | 17.5%
Cc1ccc(-c2ccc(=O)n(CCC(=O)NCc3ccccn3)n2)cc1
 : -2.3% | i | 5.31e-08 | i | 2.2%
COc1cc(NC(=O)C2CCN(S(=O)(=O)c3cccnc3)CC2)cc(OC)c1OC
 : 8.9% | i | 1.56e-08 | i | 0.1%
CC(=O)Nc1cnc(NC(=O)c2cccc(F)c2)cc1C
 : -7.7% | i | 2.92e-08 | i | 2.3%
O=c1cc(-c2ccccc2)oc2cc(O)cc(O)c12
 : -2.8%[25.6 µM] | i | 2.41e-08 | i | -4.0%
COC(=O)N1CCC2(CCCN(C(=O)Nc3cccc(F)c3)C2)CC1
 : 1.4% | i | 1.7e-09 | i | 2.4%
COc1cccc(C(=O)CSc2nnc(CNc3nc(-c4ccccc4)cs3)n2C)c1
 : 7.6% | i | 1e-09 | i | -0.8%
CS(=O)(=O)Nc1cccc(-c2nc(N3CCOCC3)c3ccccc3n2)c1
 : . | i | 2.3e-09 | i | -3.2%
CCN(CC)c1ccc(NC(=O)c2c(OC)cccc2OC)c(C)c1
 : -2.4% | i | 2.37e-08 | i | 0.1%

Entries listed so far with an NH in an aromatic ring, in the order listed:
Each structure is followed by: TSHR agonist | A488 autofl | A647 autofl | Resorufin autofl | AID923
CCCc1cc(=O)[nH]c(/N=C(\N)Nc2ccccc2)n1
 : 4.4% | i | 8.5e-09 | i | -2.0%
COc1ccccc1N1CCN(S(=O)(=O)c2cnc[nH]2)CC1
 : 7.9% | . | . | . | -1.1%

Next part:
Each structure is followed by: TSHR agonist | A488 autofl | A647 autofl | Resorufin autofl | AID923
COc1cccc(C2CC(c3c(F)cccc3Cl)n3nc(N)nc3N2)c1 (centres undefined)
 : 12.8% | i | 1.02e-08 | i | 2.6%
Cn1c(=O)cc(OCC(=O)NCCCN2CCN(Cc3ccccc3)CC2)c2ccccc21
 : 11.1% | . | . | . | 4.6%
COc1ccc(-c2nc(CS(=O)CC(=O)NCc3cccnc3)c(C)o2)cc1OC (centres undefined)
 : -5.4% | . | . | . | 2.0%
Cc1cccc(N2CCN(C(=O)CSCc3c(C)noc3C)CC2)c1C
 : ? | i | 5.08e-08 | i | -1.7%
COc1ccc(C2CC(=O)C3=C(C2)Nc2ncnn2C3c2ccccc2)cc1 (centres undefined)
 : -8.2% | i | 9.1e-09 | i | -0.1%
CCn1c(CNC(=O)c2ccc(OC)c(OC)c2)nnc1SCC(=O)Nc1ccccc1
 : 0.3% | i | 7.6e-08 | i | -0.3%
CCOc1ccc(C(=O)OCC(=O)Nc2nc(OC)cc(OC)n2)cc1OCC
 : 0.1% | i | 1e-09 | i | 0.6%
CCC1CCCCN1Cc1nc2c(c(=O)n(C)c(=O)n2C)n1CC(C)C (centres undefined)
 : ? | . | . | . | -3.7%
CCOC(=O)C1CCN(C(=O)CN(c2ccc3c(c2)OCO3)S(C)(=O)=O)CC1
 : -3.2% | i | 1.32e-08 | i | -0.5%
CC1(C)Cc2ccccc2-c2nc(NCCO)n(-c3ccccc3)c(=O)c21
 : -10.3%[11.4 µM] | . | . | . | -2.7%
Cc1cc(C)cc(CC2CC(=O)N(c3cc(C)on3)C2=O)c1 (centres undefined)
 : . | i | 1.1e-09 | i | .
CCCCn1c(Cc2ccccc2)n[nH]c1=S
 : 2.0% | i | 5.4e-09 | i | 2.4%
O=C(NCc1ccc2c(c1)OCO2)c1ccc(-n2cnnn2)cc1
 : 14.5% | i | 3.2e-09 | i | -1.4%
COc1ccc(C(CNC(=O)c2ccc(OCC3CCCO3)cc2)N2CCOCC2)cc1 (centres undefined)
 : 2.3% | i | 3.14e-08 | i | 1.6%
CCOC(=O)c1cc2occc2n1CC(=O)N1CCCc2ccccc21
 : . | i | 1.7e-09 | i | -1.0%
CCOC(=O)CCc1cccc2c1CCC2=O
 : -4.3% | i | 1.4e-09 | i | 1.5%
CCC(C)Sc1nc2c(c(=O)[nH]c(=O)n2C)n1C (centres undefined)
 : 24.6% | i | 1e-09 | i | 0.0%
COc1ccccc1NC(=O)C1=C(C)NC2=C(C(=O)CCC2)C1c1ccc2c(c1)OCO2 (centres undefined)
 : 3.6% | i | 1e-09 | i | 9.2%
O=C(O)CCC(=O)c1c[nH]c2ccccc12
 : 13.8% | i | 1e-09 | i | -0.8%
CCN(CC)S(=O)(=O)c1ccc2oc(C(=O)O)c(C)c2c1
 : 1.3%[11.4 µM] | i | 2.25e-08 | i | -0.1%
CCOC(=O)C1CCN(C(=O)c2cccc(Cl)c2)CC1
 : 10.6% | i | 7.3e-09 | i | 1.0%
COc1cccc(NC(=O)CCN2CCC(C(N)=O)CC2)c1
 : 5.9% | . | . | . | 11.8%
COc1cc(/C=c2\s/c(=C(/C#N)C(=O)N3CCCC3)n(-c3ccccc3)c2=O)ccc1O
 : -1.0% | i | 1e-09 | i | 5.6%
CCc1nc2c3cnn(-c4cc(Cl)ccc4C)c3ncn2n1
 : 7.7% | i | 7.7e-09 | i | 0.5%
CCOC(=O)c1c(C)n(C)c2ccc(OCC(O)Cn3c(C)nc4ccccc43)cc12 (centres undefined)
 : 25.6% | i | 1e-09 | i | -0.7%
COc1ncc2nc(-c3ccccc3)c(=O)n(CCc3ccccc3)c2n1
 : 8.4% | i | 1.73e-08 | i | ?
COc1ccc(-c2noc(COc3ccc(Cl)c(C)c3)n2)cc1
 : ? | . | . | . | 1.3%
CC1CCCC(C)N1C(=O)CSc1nnc(-c2c[nH]c3ccccc23)o1 (centres undefined)
 : 16.1% | i | 1.01e-08 | i | 0.1%
COc1cccc(CN(C)CC(=O)NC(=O)NCc2ccco2)c1
 : 3.1% | i | 4.7e-09 | i | 0.4%
O=c1nc2scc(-c3ccccc3)n2c2ccccc12
 : . | i | 1e-09 | i | 4.8%
CC(=O)NCCn1c(SCC(=O)NCc2ccco2)nc2ccccc2c1=O
 : ? | i | 1.2e-08 | i | -1.1%
Cc1cccc(C2Nc3ccccc3C(=O)N2CCc2ccccc2)n1 (centres undefined)
 : ? | . | . | . | 5.2%
COc1ccc(OCC(=O)N2CCN(C(=O)COc3ccccc3)CC2)cc1
 : -7.8% | i | 1e-09 | i | -0.1%
CCN(CC)C(=O)CSC1=Nc2ccccc2C2=NC(Cc3c[nH]c4ccccc34)C(=O)N12 (centres undefined)
 : 5.3% | i | 7.4e-09 | i | 1.2%
Cc1ccc(C(C)C)cc1S(=O)(=O)NCc1cccnc1
 : 0.4% | i | 1e-09 | i | -1.0%
CCn1c2ccccc2c2nn(C)c(=N)nc21
 : . | i | 1.13e-08 | i | -1.3%
CC(=O)c1cc2c(cc1NC(=O)CN1CCCCC1C)OCO2 (centres undefined)
 : 4.3% | i | 1.97e-08 | i | 1.9%
C[N+](C)(C)CC(=O)N/N=C\c1c(O)ccc2ccccc12
 : -2.0%[11.4 µM] | i | 1.5e-08 | i | 20.4%[11.5 µM]
Cn1ccnc1C[C@@](C)(O)c1ccccc1
 : 0.4%[11.4 µM] | i | 1e-09 | i | 6.4%[11.5 µM]
CN1C(=O)CSc2ccc(NC(=O)N3CCOCC3)cc21
 : -18.5% | i | 3.73e-08 | i | 2.2%
O=C(Nn1c(-c2ccccc2)nc2ccccc2c1=O)c1ccco1
 : . | i | 2.55e-08 | i | 0.0%
CCOC(=O)c1ccc(CC(=O)c2oc3cc(O)ccc3c2C)o1
 : ? | i | 4.9e-09 | i | 20.1%
Oc1c(C(c2cccs2)N2CCN(c3cccc(Cl)c3)CC2)sc2ncnn12 (centres undefined)
 : ? | . | . | . | -1.7%
CC(=O)N1CC2(C)CN(C(C)=O)CC(C)(C1)C2O (centres undefined)
 : 3.8% | i | 1.69e-08 | i | -5.9%
CCc1nnc(NC(=O)C2CCCN2S(=O)(=O)c2ccc(F)cc2)s1 (centres undefined)
 : -6.3% | i | 1.6e-09 | i | -0.5%
COC(=O)C1=C(C)N=C2SC(C)C(=O)N2C1c1cccc(F)c1 (centres undefined)
 : . | i | 3.2e-08 | i | .
O=C(CN(C1CCCCC1)S(=O)(=O)c1ccc(Cl)cc1)NCc1ccncc1
 : 5.0% | . | . | . | 0.2%
COc1ccc(NC(=O)CCn2cccc2)cc1
 : 19.1% | . | . | . | -1.9%
CCN(CC)c1ccc(/C=N/n2nnnc2N)c(O)c1
 : -18.0% | . | . | . | 20.4%
CC(C)Cc1cc(C(=O)NCc2cccs2)no1
 : -4.5% | . | . | . | 1.3%
CCOc1cc(Br)c(C(=O)O)cc1OCC
 : ? | i | 1e-09 | i | 0.7%
CC(C)[C@H](CO)Nc1nc(Nc2cc(N)cc(Cl)c2)c2ncn(C(C)C)c2n1
 : ? | . | . | . | -1.3%
O=C(O)[C@@H](O)Cc1ccccn1
 : -3.5%[11.4 µM] | i | 3.22e-08 | i | -4.3%[11.5 µM]
COc1cc([C@@H]2c3cc4c(cc3[C@H](O)[C@H]3COC(=O)[C@H]23)OCO4)cc(OC)c1OC
 : . | i | 1e-09 | i | -1.2%
N[C@]1(C(=O)O)CCc2cc(C(=O)O)ccc21
 : 0.2%&2.4% | i | 3.9e-08 | i | 3.4%
CCOC(=O)c1c(C)[nH]c(C(=O)OC)c1CCC(=O)OC
 : 7.6% | . | . | . | -3.0%
Cc1n[nH]c(C)c1S(=O)(=O)N1CCC(C(=O)O)CC1
 : 0.6% | i | 1e-09 | i | 2.4%
Cc1ccccc1NC(=O)N1C2CCCC1CC(NC(=O)C(C)(C)C)C2 (centres undefined)
 : -3.4% | i | 1e-09 | i | 0.6%
FC(F)(F)c1ccccc1-c1nccc(NCc2ccccc2)n1
 : ? | i | 1.32e-08 | i | 1.5%
CCN1C(=C2C(=O)c3ccccc3C2=O)C=Cc2ccccc21
 : 11.2% | . | . | . | -1.2%

Further records.
Each structure is followed by: TSHR agonist | A488 autofl | A647 autofl | Resorufin autofl | AID923
COc1ccccc1CNC(=O)CS(=O)Cc1nc(-c2ccccc2C)oc1C (centres undefined)
 : ? | . | . | . | -3.8%
CC(C)(C)c1ccc(O)c(O)c1
 : -5.0% | . | . | . | -2.3%
Cc1ccc(C)n1-c1cccc(C(=O)O)c1
 : 3.0% | i | 6.5e-09 | i | 3.2%
Cn1c(=O)n(CCc2ccccc2)c(=O)c2c1nc1n2CCCN1c1ccccc1
 : ? | i | 2.01e-08 | i | -1.4%
O=C(NC(Cc1ccccc1)C(=O)N1CCCC1C(=O)O)c1ccccc1 (centres undefined)
 : 10.0% | . | . | . | -1.6%
CC(C)C(C(=O)NCC1CCCO1)N(Cc1ccco1)C(=O)CNS(=O)(=O)c1ccccc1 (centres undefined)
 : 5.7% | i | 5.8e-09 | i | -1.4%

Bioassay records from PubChem BioAssay.
